High-throughput results (PubChem)
eIF4H FP inh = human eIF4H binding inhibitors, primary screen, translation initiation inhibitor project, biochemical, uHTS, fluorescence polarization; Eukaryotic translation initiation factor 4H (Homo sapiens), Q15056; eIF4H fluorescence polarization binding assay; inhibition, % at 35 µM; 290,000 compounds, 0.94% hits; AID 2012, 2009;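 active = 50% or more with normal probe brightness, or confirmed in later tests; inconclusive = above 50% with abnormal brightness, or retests that disagree; inactive = below 50% or failed in later tests; about a fifth of its hits are not listed in these tables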;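 also: calls also rest on retests at 20 µM and on dose response follow-up; 0% = protein and probe with vehicle and 100% = probe without protein; strong numbers were not always called active; many hits fall short of the cut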
UUG fidelity = modulators of yeast start codon fidelity, primary screen, whole organism, S. cerevisiae, single point, plate reader | S. cerevisiae UUG-firefly luciferase reporter, luminescence/redox ratio | activity score, % at 18.7 µM | 350,000 compounds, 0.13% hits;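 active = replicate mean at a twofold rise or more, about +100% in these data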;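 also: firefly luciferase made from a UUG start codon reports start codon fidelity; reporter light over untreated wells divided by growth signal over untreated wells; some hits fall short of that in this replicate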
CSC inhib = cancer stem cell viability inhibitors, primary screen, luminescence. cancer stem cell-like cells viability. inhibition, % at 7.5 µM. 300,000 compounds, 1.1% hits;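 active = mean at 75% or more and at least half the replicates too; inconclusive = mean and replicates disagree; tested in HMLE shEcad cells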;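 also: 0% = median of negative and 100% = median of positive control wells; the first replicate is given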
PABP polyA inh = PABP poly(A) RNA binding inhibitors, primary screen, biochemical, fluorescence polarization, uHTS; Polyadenylate-binding protein 1 (Homo sapiens), P11940; inhibition, % at 35 µM; 290,000 compounds, 1% hits;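 active = 50% or more with normal probe brightness, or confirmed in later tests; inconclusive = above 50% with abnormal brightness, or retests that disagree; inactive = below 50% or failed in later tests; about a fifth of its hits are not listed in these tables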;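 also: calls also rest on retests at 20 µM and on dose response follow-up; controls were probe without protein and protein plus probe with vehicle; some compounds called inactive have numbers as strong as hits; many hits fall short of the cut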
Target sequence (P11940 whole entry, looked up): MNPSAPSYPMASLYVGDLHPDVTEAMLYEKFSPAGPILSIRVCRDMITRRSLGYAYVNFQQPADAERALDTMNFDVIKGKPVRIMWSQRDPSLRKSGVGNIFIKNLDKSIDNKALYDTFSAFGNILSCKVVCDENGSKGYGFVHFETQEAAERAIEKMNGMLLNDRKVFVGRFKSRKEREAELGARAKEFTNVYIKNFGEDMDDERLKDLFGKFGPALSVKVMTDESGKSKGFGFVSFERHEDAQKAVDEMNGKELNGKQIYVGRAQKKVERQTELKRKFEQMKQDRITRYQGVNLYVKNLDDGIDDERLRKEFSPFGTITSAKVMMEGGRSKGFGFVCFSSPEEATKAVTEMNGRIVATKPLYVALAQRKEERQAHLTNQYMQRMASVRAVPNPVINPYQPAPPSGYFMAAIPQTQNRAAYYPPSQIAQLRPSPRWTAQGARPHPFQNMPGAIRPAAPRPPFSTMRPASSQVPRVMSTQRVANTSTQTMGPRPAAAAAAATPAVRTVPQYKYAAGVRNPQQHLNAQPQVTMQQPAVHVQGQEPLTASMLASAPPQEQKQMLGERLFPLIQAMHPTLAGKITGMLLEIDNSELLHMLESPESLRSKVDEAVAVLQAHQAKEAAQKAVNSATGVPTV
HIV Env fusion = inhibitors of HIV-1 Env-driven cell-cell fusion, primary screen, HeLa-JRFL effector, CEM21 target cells, luciferase | 360,000 compounds, 1.1% hits | inhibition, % at 12.3 µM;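 active = mean replicate inhibition score of at least 50 and every replicate individually at or above 50; inconclusive = only one of the two criteria met; inactive = mean below 50 and not all replicates reaching 50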;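 also: 0% = plate neutral controls and 100% = maraviroc near 300 nM; one replicate is shown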
MT1-MMP act inh = blockers of MT1-MMP proenzyme processing, primary screen, HT1080 RFP-PRO-GFP cells, GFP/RFP fluorescence. AID 651647, 2012. 360,000 compounds, 0.061% hits. GFP/RFP ratio change, % at 20 µM. GFP/RFP ratio fluorescence, overnight; percent of plate control window, DMSO zero. Matrix metalloproteinase-14 (Homo sapiens), P50281;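 active = GFP/RFP ratio change of at least 30% with cell ATP level not reduced by more than half and red fluorescence within 50% of control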; also: strong numbers were not always called active
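Assay system: RFP-PRO-GFP reporter HT1080 cells; read-out basis: GFP/RFP fluorescence ratio; benchmarks: DMSO wells and RFP-L50D-GFP cells; doses: 20 µM single dose, 1% DMSO; schedule: overnight cell settling, then overnight compound exposure, 37 °C, 5% CO2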
Rce1 inhib = yeast Rce1p protease inhibitors, primary screen, biochemical, fluorescence, cell-free homogeneous. CAAX prenyl protease 2 (Saccharomyces cerevisiae (strain ATCC 204508 / S288c)), Q03530. yeast membranes, quenched prenylated peptide cleavage fluorescence. calls only. 290,000 compounds, 0.27% hits. AID 2563, 2010;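 active = fall in fluorescence gain of 50% or more versus controls, with final raw signal at or below 3038400; inconclusive = same 50% fall but final raw signal above 3038400; inactive = fall in fluorescence gain under 50%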;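 also: plate controls were neutral control wells for no effect and wells lacking membranes for full effect; tested at 10 µM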
Target sequence (Q03530 whole entry, looked up): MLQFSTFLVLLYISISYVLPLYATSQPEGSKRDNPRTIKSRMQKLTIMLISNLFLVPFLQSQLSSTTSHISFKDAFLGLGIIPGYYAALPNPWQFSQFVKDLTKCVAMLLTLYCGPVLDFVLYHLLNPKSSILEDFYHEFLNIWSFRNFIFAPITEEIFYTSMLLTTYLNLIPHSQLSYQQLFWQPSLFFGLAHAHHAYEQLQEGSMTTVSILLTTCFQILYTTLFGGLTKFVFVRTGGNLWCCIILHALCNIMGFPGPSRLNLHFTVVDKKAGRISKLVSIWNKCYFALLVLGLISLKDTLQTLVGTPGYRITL
MT1-MMP act inh RFP = also measured in MT1-MMP act inh; calls as there; RFP signal change, %; measured here: RFP expression control read;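 0 = vehicle wells; hits needed this value within 50% of zero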
Starred values were filed as active, the others as inactive; i = inactive; u = inconclusive; x = not tested or not shown; + = active, no number; & = joins results of further samples. This is a random part of the collection, and some 3% of all compounds hit somewhere here.

SMILES	eIF4H FP inh	UUG fidelity	CSC inhib	PABP polyA inh	HIV Env fusion	MT1-MMP act inh	MT1-MMP act inh RFP	Rce1 inhib
O=C(COc1ccccc1)Nc1ccc(C(=O)N2CCCC2)cc1	-2	-4	1	28	-11	0	1	i
CC(=O)c1ccc(N2CCN(C(=O)c3ccc4nc[nH]c4c3)CC2)cc1	7	-9	-15	-9	18	2	2	i
COc1ccc(Cc2nc(-c3cccs3)no2)cc1	-1	-29	3	-7	-33	1	-1	i
CCC1CCCCN1S(=O)(=O)c1ccc(C(=O)Nc2nnc(C3CC3)o2)cc1 (configuration not stated)	14	-20	26	4	20	-1	-1	i
O=C(N/N=C/c1cccc([N+](=O)[O-])c1)C1CC(=O)N(c2ccc(F)cc2)C1 (configuration not stated)	0	x	x	-10	26	-1	-2	i
O=C(NC1=NCCS1)c1ccc(Br)s1	3	2	-4	3	-107	-1	1	i
CN(Cc1ncc[nH]1)C(=O)CC1C(=O)NCCN1Cc1c(F)cccc1Cl (configuration not stated)	-2	-6	0	6	-3	-6	0	i
O=C(NC1CCN(C(=O)Nc2cccc(F)c2)CC1)C1CCCCC1	-7	x	-2	-1	i	1	0	i
CCO[C@@H]1OC(C(=O)N2CCN(C)CC2)=C[C@H](c2csc3ccccc23)[C@H]1CCCO	2	-22	2	-3	-1	1	1	i
Cc1ccc(S(=O)(=O)N2CCN(C(=O)COc3ccc(-c4nnco4)cc3)CC2)cc1	0	-17	-2	-8	-31	-2	2	i
c1ccc2c(c1)CCCn1nnnc1-2	-1	-22	-11	3	-5	-2	1	i
CC1CCN(C(=O)c2ccc(S(=O)(=O)Cc3ccccc3F)c([N+](=O)[O-])c2)CC1	-1	x	14	-1	29	-7	-14	i
Cc1ccc(NC(=O)CCCCCN2C(=O)[C@@H]3Cc4ccccc4CN3C2=O)cc1	-5	26	-2	4	20	-1	-3	i
CCCCSc1[nH]c(=O)c(C(=O)OCC)cc1C#N	-2	2	-4	14	-53	-2	2	i
COc1ccc(OC)c(CN2CCN(CCCc3ccccc3)C(CCO)C2)c1 (configuration not stated)	18	29	9	4	9	-2	2	i
CC(C)NC(=O)NC(=O)COC(=O)/C=C/c1ccccc1[N+](=O)[O-]	7	-8	-7	8	13	-2	3	i
COc1ccc(CC(=O)N/N=C(\C)c2cccs2)cc1	-6	7	2	-5	-12	0	-1	i
COC(=O)c1sc(SC)c(S(=O)(=O)C(C)C)c1N	-3	x	-12	11	-8	1	2	i
CCCCOc1ccc(C(=O)Nn2c(-c3cccs3)nc3ccccc3c2=O)cc1	1	x	0	-4	19	5	-1	+
CCN(CC)C(=O)CSC1c2ccccc2C(=O)N1c1ccccc1 (configuration not stated)	-2	x	-4	1	x	-1	1	i
COc1ccc2cc(C(=O)Nc3ccc(Cl)cc3)sc(=O)c2c1OC	-1	x	-14	-2	-15	-12	-3	i
CCOc1ccc(C(=O)CCC(=O)NCC(=O)Nc2c(C)cccc2C)cc1	x	-5	x	x	-8	0	4	x
Cc1cc(NC(=O)CSc2nnc(CNc3cccc(C(F)(F)F)c3)n2Cc2ccco2)no1	-3	-12	-6	8	-66	4	1	i
COc1cccc(C(=O)Oc2cc(N)n(S(=O)(=O)c3ccc(C)cc3)n2)c1OC	-8	-13	-5	4	x	2	0	i
O=C1CN(/N=C/c2ccc([N+](=O)[O-])o2)C(=O)N1	u	-9	-9	1	-21	-1	-7	i
O=C(C1CCCO1)N1CCN(C(=S)Nc2cc(F)cc(F)c2)CC1 (configuration not stated)	-7	-8	-6	-3	-7	0	-1	i
COc1cccc(-c2cc(C(=O)N3CCc4ccccc4C3)[nH]n2)c1	-4	-6	12	-10	-24	-2	-1	i
CCOC(=O)C1=C[C@@H](CC)N(S(=O)(=O)c2ccc(C)cc2)[C@H]1c1ccccc1	x	-8	x	x	-1	2	-6	x
c1ccc2[nH]c(SCc3cn4cccnc4n3)nc2c1	-7	x	x	3	1	10	1	i
O=C(Nc1cccnc1)OC1CCCCC1	-4	x	-22	3	7	5	4	i
Cc1ccc(NC(=O)CN(C)C(=O)CSc2nc(C)cc(C)n2)cc1	x	-2	x	x	-8	1	2	i
COc1ccc(CC(=O)Nc2ccccc2N2CCCC2)cc1	-19	-16	-18	7	5	-1	3	i
C[C@@H]1CC[C@@]23COC(=O)C2=CCC[C@@H]3[C@@]1(C)CC/C(=C/CO)CO	x	-7	-14	x	x	1	0	x
CC(=O)Nc1ccc(NC(=O)CSc2ccc3nnc(-c4ccccn4)n3n2)cc1	-1	-6	0	1	5	-1	2	i
Cc1nc2cc(C(=O)N3CCN(C)CC3)ccc2n1C	-3	-16	-3	0	-7	-3	3	i
O=C(COC(=O)c1cccc(Br)c1)NCCNC(=O)COC(=O)c1cccc(Br)c1	-3	1	2	4	-8	-1	0	i
C/C(=N\Nc1ccc(C(=O)c2c(C)cc3ccccn23)cc1[N+](=O)[O-])c1ccc(O)cc1	-6	-2	28	5	22	14	-13	i
O=C(NCCCN1CCCC1=O)Nc1ccccc1Cl	-5	-17	-12	-14	3	3	5	i
Cc1cccc(C)c1Cn1c(C)c(C(=O)NCc2ccc([N+](=O)[O-])cc2)sc1=O	x	-9	x	x	-7	5	-26	x
CCOC(=O)Cc1csc(NS(=O)(=O)c2ccc(NC(C)=O)cc2)n1	17	-1	-9	16	-10	-3	1	i
COc1ccc(NC(=O)Cn2c(=O)n(-c3ccccc3)c(=O)c3oc4ccccc4c32)c(OC)c1	-3	-16	16	-1	-5	6	-5	i
N#Cc1ccsc1NC(=O)CN1CCCCC1	4	-6	-10	5	-33	0	3	x
Cc1nc([N+](=O)[O-])cn1-c1nc2ccccn2c1[N+](=O)[O-]	-5	-10	-8	4	-8	-1	-7	i
CCN(CC)CCN(Cc1cc2ccc(C)c(C)c2[nH]c1=O)C(=S)NCc1ccco1	0	x	-2	-4	-2	3	-7	i
Cc1nn(C)c(C)c1NS(=O)(=O)c1ccc(Cl)s1	x	10	2	x	x	5	-8	x
COc1ccc(CNC(=O)C(=O)NCC2OCCCN2S(=O)(=O)c2cccs2)cc1 (configuration not stated)	8	-16	-23	11	i	4	2	i
Cc1cc(NC(=O)CSc2nc3ccsc3c(=O)n2Cc2ccccn2)n[nH]1	0	-23	1	-10	x	5	3	i
CCN1C(=O)c2cccc3c(S(=O)(=O)Nc4ccc(OC)cc4OC)ccc1c23	0	10	9	-14	5	3	3	i
COc1cc(-c2noc(C)c2C#Cc2ccsc2)cc(OC)c1OC	-7	-10	64	4	-36	16	-4	i
COc1ccc(CNC(=O)CCC(=O)Nc2nnc(C(F)(F)F)s2)cc1	3	-14	-9	2	-205	-3	1	i
Cc1noc(C)c1CCC(=O)Nc1cc(C(=O)O)ccc1Cl	x	-6	x	x	-20	11	9	x
C[C@@H]1CCCCO[C@H](CN(C)Cc2ccc(C(=O)O)cc2)[C@@H](C)CN([C@H](C)CO)C(=O)c2cc(N(C)C)ccc2O1	x	11&-14	x	x	-8	1	5	x
CCCCNC(=S)N/N=C/c1ccc(C)s1	-1	-33	10	-6	-76	0	1	i
COc1ccccc1-c1nc(SCC(=O)N(C)c2ccccc2)c2c(=O)n(C)c(=O)n(C)c2n1	50	-6	x	-8	9	5	1	i
COCCCn1c(SCC(=O)NCc2ccco2)nc2sc3c(c2c1=O)CCC3	6	-6	5	-2	u	2	6	i
CCOc1nc(C)ccc1-c1noc(-c2ccccn2)n1	-6	5	-3	2	x	-2	-3	i
COCCNC(=O)C1CCCN(C(=O)/C=C/c2ccccc2)CC1 (configuration not stated)	x	-25	x	x	-11	5	5	x
Fc1ccc(NC(=S)Nc2ccccc2N2CCOCC2)cc1Cl	14	x	4	-7	-11	2	4	i
CCOC(=O)c1sc2ncn(C(CC)C(=O)OCC)c(=O)c2c1C (configuration not stated)	3	-14	-12	-3	x	-4	-6	i
O=C(C1CCN(S(=O)(=O)N2CCC3(CC2)OCCO3)CC1)N1CCCCC1	-6	-16	2	2	-30	3	5	i
More compounds.
SMILES	eIF4H FP inh	UUG fidelity	CSC inhib	PABP polyA inh	HIV Env fusion	MT1-MMP act inh	MT1-MMP act inh RFP	Rce1 inhib
CC1Cc2ccccc2N1C(=O)Cn1cc(C(F)(F)F)ccc1=O (configuration not stated)	x	55	x	x	27	-1	5	x
CC(OC(=O)Cc1c[nH]c2ccccc12)C(=O)NC1CCCCC1C (configuration not stated)	x	7	4	x	1	-4	-3	x
CCn1cc(C2Nc3ccccc3C(=O)N2O)c(C)n1 (configuration not stated)	0	-16	-12	0	x	3	2	i
O=C(CN1C(=O)NC2(CCc3ccccc32)C1=O)Nc1c(Cl)cccc1Cl (configuration not stated)	x	0	-8	x	-2	0	1	x
CCc1ccc(S(=O)(=O)NCCc2cn3ccsc3n2)s1	8	-19	0	-1	-4	-4	-1	i
O=C(Cn1nc(C(F)(F)F)c2c1CCC2)NCc1ccc(F)cc1	-3	-19	0	-7	-21	17	0	i
CC1=NN(c2ccc(Cl)c(C(=O)O)c2)C(=O)/C1=C/c1ccc(-c2ccccc2[N+](=O)[O-])o1	12	-10	13	35	11	1	3	i
O=C(NCc1nnc(SCC(=O)N2CCN(c3ccccc3)CC2)o1)c1ccc(F)cc1	-2	-22	10	0	-4	-3	-9	i
COc1cccc(/C=C2\SC(=S)N(CC3CCCO3)C2=O)c1 (configuration not stated)	-13	x	21	-7	x	-5	-2	i
CC1CCCC(NC(=O)CSc2n[nH]c(N)n2)C1C (configuration not stated)	x	-8	8	x	13	1	5	x
CCCCC1CCC(C(=O)N(C)CC(=O)Nc2cccc(OC)c2)CC1 (configuration not stated)	x	-15	13	x	14	5	0	x
Cc1ccc(Nc2nc(N)nc(CN3CCC(C)CC3)n2)c(C)c1	x	-25	-2	x	-28	0	8	i
Cc1ccnc(SCc2cc(=O)c(OC(=O)c3ccc(Br)o3)co2)n1	-2	x	x	-4	22	3	5	i
CC(=O)c1ccc(NC(=O)CCCN2C(=O)COc3ccc(C)cc32)cc1	0	-15	1	-12	1	-3	-2	i
COc1cccc(N2CCN(CC(=O)Nc3nc4c(s3)CC(C)CC4)CC2)c1 (configuration not stated)	-3	-2	-15	-1	x	4	-2	i
CC(=O)Nc1nc(-c2ccccc2)c(-c2ccccc2)o1	6	x	8	5	3	-2	2	x
CC1=NN(c2nc3ccccc3[nH]2)C(=O)C1Cc1ccccc1 (configuration not stated)	10	-6	100*	8	x	-2	-19	i

Just PABP polyA inh, for some of the entries so far:
| canonical_smiles | PABP polyA inh |
| --- | --- |
| COc1ccc(CC(=O)N/N=C(\C)c2cccs2)cc1 | -5 |
| COC(=O)c1sc(SC)c(S(=O)(=O)C(C)C)c1N | 11 |
| CCCCOc1ccc(C(=O)Nn2c(-c3cccs3)nc3ccccc3c2=O)cc1 | -4 |
